# MT1-MMP act inh: inhibitors of human MT1-MMP activation | GFP/RFP ratio change, % at 20 µM | HT1080 RFP-PRO-GFP cells, GFP/RFP ratio fluorescence, overnight; percent of plate control window, DMSO zero | P50281 | 0.061% of 360,000 active | AID 651647;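 active = GFP/RFP ratio change of at least 30% with cell ATP level not reduced by more than half and red fluorescence within 50% of control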; also: strong numbers were not always called active
#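 system = RFP-PRO-GFP reporter HT1080 cells | dosing = 20 µM single dose, 1% DMSO | timing = overnight cell settling, then overnight compound exposure, 37 °C, 5% CO2 | read-out basis = GFP/RFP fluorescence ratio | controls = DMSO and RFP-L50D-GFP cell wells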
# HIV Env fusion: inhibitors of HIV Env-mediated cell fusion | HeLa-JRFL Env/CEM21 cell fusion, luciferase | inhibition, % at 12.3 µM | 1.1% of 360,000 active;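 active = mean replicate inhibition score of at least 50 and every replicate individually at or above 50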;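 also: 0% = plate neutral controls and 100% = maraviroc near 300 nM; one replicate is shown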
# Yeast UUG start: yeast start codon fidelity modulation; S. cerevisiae UUG-firefly luciferase reporter, luminescence/redox ratio; activity score, % at 18.7 µM; 0.13% of 350,000 active; AID 602363;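 active = replicate mean at a twofold rise or more, about +100% in these data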;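 also: firefly luciferase made from a UUG start codon reports start codon fidelity; reporter light over untreated wells divided by growth signal over untreated wells; some hits fall short of that in this replicate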
# eIF4H FP inh: inhibitors of RNA binding by human eIF4H; Q15056; eIF4H fluorescence polarization binding assay; inhibition, % at 35 µM; 0.94% of 290,000 active;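 active = 50% or more with normal probe brightness, or confirmed in later tests; about a fifth of its hits are not listed in these tables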;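 also: calls also rest on retests at 20 µM and on dose response follow-up; 0% = protein and probe with vehicle and 100% = probe without protein; strong numbers were not always called active; many hits fall short of the cut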
# PABP FP inh: PABP-poly(A) binding inhibition. P11940. PABP-poly(A) RNA binding, fluorescence polarization. inhibition, % at 35 µM. 1% of 290,000 active. AID 2014;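 active = 50% or more with normal probe brightness, or confirmed in later tests; about a fifth of its hits are not listed in these tables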;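 also: calls also rest on retests at 20 µM and on dose response follow-up; controls were probe without protein and protein plus probe with vehicle; some compounds called inactive have numbers as strong as hits; many hits fall short of the cut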
# Rce1 inhib: blocks yeast Ras-converting enzyme. Q03530. yeast membranes, quenched prenylated peptide cleavage fluorescence. calls only. 0.27% of 290,000 active. AID 2563;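 active = fall in fluorescence gain of 50% or more versus controls, with final raw signal at or below 3038400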;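 also: plate controls were neutral control wells for no effect and wells lacking membranes for full effect; tested at 10 µM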
# Target sequence (Q03530 whole entry, looked up): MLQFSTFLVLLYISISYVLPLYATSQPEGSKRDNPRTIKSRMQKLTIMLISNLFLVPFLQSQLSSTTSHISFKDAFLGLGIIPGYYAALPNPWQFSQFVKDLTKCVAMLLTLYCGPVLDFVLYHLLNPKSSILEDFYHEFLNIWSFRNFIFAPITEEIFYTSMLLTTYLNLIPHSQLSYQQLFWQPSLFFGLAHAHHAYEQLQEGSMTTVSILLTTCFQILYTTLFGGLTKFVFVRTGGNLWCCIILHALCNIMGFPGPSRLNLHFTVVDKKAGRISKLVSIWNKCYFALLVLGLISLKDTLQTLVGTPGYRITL
# CSC inhib: blocks cancer stem cells | cancer stem cell-like cells viability, luminescence | inhibition, % at 7.5 µM | 1.1% of 300,000 active | AID 2717;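 active = mean at 75% or more and at least half the replicates too; tested in HMLE shEcad cells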;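 also: 0% = median of negative and 100% = median of positive control wells; the first replicate is given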
# eIF4H FP inh retest: second read-out of eIF4H FP inh, no call of its own (marks repeat the call); inhibition, %; compound at 20 µM; confirmation average;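 mean of two retest wells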
# PABP FP inh retest: also measured in PABP FP inh; calls as there; inhibition, %; compound at 20 µM; confirmation repeats;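 mean of two retest wells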
# MT1-MMP act inh RFP: further read-out of MT1-MMP act inh, marked with its call; RFP signal change, %; measured here: RFP expression control read;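 0 = vehicle wells; hits needed this value within 50% of zero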
# Active calls of the source: *; i = inactive; . = not tested or not shown; & = joins results of further samples; ! = not active in a repeat; [ ] = dose if it differs, or a comment.
SMILES,MT1-MMP act inh,MT1-MMP act inh RFP,HIV Env fusion,Yeast UUG start,eIF4H FP inh,PABP FP inh,Rce1 inhib,CSC inhib,others
O=C(CSc1cc(Cl)ccc1Cl)NCCN1C(=O)CSC1=O,6,2,0,-3,.,.,.,-18,
Fc1ccc(CCNC(=S)Nc2ccc(F)cc2)cc1,3,-2,-18,-31,2,-5,i,-8,
COc1cc(OC)c(S(=O)(=O)Nc2ccccc2C(=O)O)cc1S(=O)(=O)Nc1ccccc1C(=O)O,0,0,6,-4,-4,4,i,-21,
COc1ccc(N2C(=O)CC(N3CCN(c4ccc(S(C)(=O)=O)cc4)CC3)C2=O)cc1 (stereo not given),1,0,-19,-23,4,-4,i,-1,
Cc1ccccc1NC(=O)c1cccc(S(=O)(=O)Nc2cccc(C(=O)O)c2)c1,0,-1,14,6,-6,-3,i,-9,
O=C(NCc1ccco1)c1cc2nc(-c3cccs3)cc(C(F)(F)F)n2n1,15,-4,-61,-24,-10,22,i,-7,
CC(C)CCOc1ccc(C(=O)C[N+]2(C)CCOCC2)cc1,4,-1,.,.,-5,42,i,.,
CCOC(=O)c1csc(NC(=O)c2ccc(OC)c(OC)c2)n1,-15,-21,.,-7,-10,-5,i,-17,
O=c1c(/C=N/O)coc2ccc(Cl)cc12,-21,-5,-13,-17,-3,8,i,8,
Cn1ccc2c(N3CCCC3)cc3c(c21)C1CCC3O1 (stereo not given),-3,4,1,-12,.,.,.,.,
CC(=O)Nc1ccc(S(=O)(=O)N(C)CC(=O)OCC(=O)N2CCN(C(=O)c3ccco3)CC2)cc1,-2,3,-31,-2,.,.,i,-4,
CCOC(=O)c1c(-c2ccc(C)o2)csc1NC(=O)CSc1nnc(C)s1,-4,-6,2,-19,0,-3,.,0,
COc1cccc(NC(=O)Cn2c(CCC(=O)O)ccc2-c2ccccc2)c1,2,5,26,.,14,-2,i,0,
COc1ccc(-c2[nH]ncc2CN(C)Cc2cc(C)[nH]n2)c(F)c1,-9,0,16,-35,-4,12,i,-2,
COc1ccc(/C=C2\C(=O)NCC(=O)N2Cc2ccccc2)cc1,-5,-5,.,-12,-2,-4,i,.,
Brc1ccc(CNCCCSc2ncccn2)cc1,-1,2,8,-21,-14,0,i,-3,
O=C(N1CCOCC1)N(Cc1cccs1)C1CCCC1,-1,4,.,-17,-2,-14,i,10,
CCOC(=O)c1nn(-c2cccc(C)c2)cc1C(=O)c1ccccc1,-6,-9,-40,-6,-4,10,i,-3,
COc1ccc(C(=O)Nc2ccc(C(=O)N3CCCCC3)cc2)cc1OC,2,-1,1,-5,6,9,i,0,
CC(C)(C)OC(=O)[C@H](Cc1ccccc1)NC(=O)c1nc[nH]c1C(=O)NCc1ccccc1,-1,3,.,-13,15,-3,i,19,

# 4 entries picked at random from those above:
SMILES,MT1-MMP act inh,MT1-MMP act inh RFP,HIV Env fusion,Yeast UUG start,eIF4H FP inh,PABP FP inh,Rce1 inhib,CSC inhib,others
COc1ccc(/C=C2\C(=O)NCC(=O)N2Cc2ccccc2)cc1,-5,-5,.,-12,-2,-4,i,.,
CCOC(=O)c1csc(NC(=O)c2ccc(OC)c(OC)c2)n1,-15,-21,.,-7,-10,-5,i,-17,
CC(C)CCOc1ccc(C(=O)C[N+]2(C)CCOCC2)cc1,4,-1,.,.,-5,42,i,.,
COc1ccc(N2C(=O)CC(N3CCN(c4ccc(S(C)(=O)=O)cc4)CC3)C2=O)cc1 (stereo not given),1,0,-19,-23,4,-4,i,-1,

# (more compounds)
SMILES,MT1-MMP act inh,MT1-MMP act inh RFP,HIV Env fusion,Yeast UUG start,eIF4H FP inh,PABP FP inh,Rce1 inhib,CSC inhib,others
CC(O)[C@H]1CNC(=S)N1CCc1cccc(F)c1 (stereo not given in full),0,2,-10,-31,0,3,i,3,
CC(C)(C)C(=O)NCC12C=CC(O1)C1C(=O)N(c3ccccc3)C(=O)C12 (stereo not given),0,3,.,-5,-10,4,i,-2,
CCc1nc2ccc(C(=O)NCC3CCCCC3)cn2c1N(C)Cc1nccs1,0,-5,2,4,.,.,.,.,
COc1ccc(-c2nnc(SCC(=O)NCCc3ccc(S(N)(=O)=O)cc3)o2)cc1OC,1,-6,13,2,-15,-5,i,-29,
CS(=O)(=O)C1=NSC2=NC(=O)/C(=C\c3cccn3-c3ccc(Cl)cc3)C(=N)N21,-5,8,31,.,31,-4,i,40,
COCCN(CC(=O)NCc1ccccc1)C(=O)CCC(=O)Nc1nccs1,-2,7,.,-12,-5,-9,i,-12,
CCCc1[nH]n(-c2nc3ccccc3s2)c(=O)c1C=NCCCN(CC)CC,3,4,-11,.,-1,10,i,-3,
COc1ccc(CNC(=O)c2nc(S(=O)(=O)Cc3ccccc3)ncc2Cl)cc1,-2,0,31,-15,-9,-5,i,-8,
O=C(COc1ccc(Cl)cc1Cl)N(Cc1ccco1)C1CCS(=O)(=O)C1 (stereo not given),0,2,19,3,9,-8,i,-9,
Cc1c(C(N)=O)sc2nc(-c3ccccc3)cn12,13,4,-55,-19,-13,-1,i,0,
COc1ccc(-c2ccc(/C=C3/C(=N)N4C=CSC4=NC3=O)o2)c([N+](=O)[O-])c1,11,19,-47,-18,87,9,i,29,eIF4H FP inh retest=-15;PABP FP inh retest=0
CCN1CCN(c2ccc(S(=O)(=O)N3CCCCC3)cc2NC(=O)c2ccc([N+](=O)[O-])s2)CC1,3,-11,-10,25,.,.,i,34,
Cc1ccc(S(=O)(=O)N2[C@@H](c3ccc(C(C)(C)C)cc3)C(C(=O)O)=CC[C@H]2c2cccc(Cl)c2)cc1,-9,-11,-21,-6,.,.,.,138*,
CC(=O)Nc1ccc(NC(=O)CN(c2ccc(F)cc2)S(=O)(=O)c2ccc3c(c2)OCCO3)cc1,0,-2,0,13,4,2,i,5,
O=C(COC(=O)COc1ccccc1)NC1CCCC1,1,5,-11,-11,.,.,.,-10,
N#Cc1c(C(F)(F)F)cc(-c2cccs2)nc1SCC(=O)O,1,7,-24,0,0,11,i,-6,
COc1ccc(-c2c[n+](CC(=O)OC3CC(C)CCC3C(C)C)c3n2CCC3)cc1 (stereo not given),-20,-38,60*,-9,-19,-1,i,-2,
O=C(Nc1c(-c2ccccc2)nc2ncccn12)c1cc2ccccc2oc1=O,-3,0,22,-19,6,-4,i,-6,
O=C(NC(Cc1ccccc1)C(=O)O)/C(=C/c1ccc([N+](=O)[O-])cc1)NC(=O)c1ccc(Br)o1 (stereo not given),-4,3,1,2,-1,-13,.,-5,
CCCCn1c(SCC(=O)Nc2sc3c(c2C(N)=O)CCC3)nnc1-c1ccccc1,1,-4,.,-16,.,.,i,-8,
CN(Cc1ccccc1)Cc1cc(=O)oc2ccccc12,1,-7,-18,-4,.,.,.,.,
O=C(NC1CC1)c1ccc2c(c1)C1C3CCC(C3)C1C(c1ccccc1)N2 (stereo not given),-5,-7,.,.,18,-3,i,10,
COc1ccc(C2=C(c3ccc(OC)c(OC)c3)CN3CCCCC3C2)cc1 (stereo not given),-1,7,4,-5,.,.,.,-5,
C[C@H](CO)N1C[C@H](C)[C@H](CN(C)S(=O)(=O)c2cccc(F)c2)Oc2cc(Br)ccc2S1(=O)=O,-1,-2,78*![16.7 µM],28&18,.,.,.,.,
COc1ccccc1N1CCN(Cc2nc(N)nc(Nc3ccccc3)n2)CC1,3,7,1,.,4,1,i,-9,
CN(CC(=O)Nc1ccc2c(c1)OCCO2)Cc1nc2ccccc2c(=O)[nH]1,-4,5,-9,-3,.,.,.,.,
CN(C)c1ccc(N=Nc2ccccc2C(=O)OCC(=O)NCC2CCCCC2)cc1,22,-19,18,.,9,-7,i,15,
CN(CC(=O)Nc1ccc(Cl)c(Cl)c1)Cc1nnc(-c2ccc(F)cc2)o1,0,-5,26,.,-9,-2,i,-22,
CCCC1(CCC)NC(=O)N(CC(=O)N2CCc3ccccc32)C1=O,-3,2,-5,0,.,.,.,-11,
Cc1[nH]n(-c2cccc(Cl)c2)c(=O)c1-c1ccccc1,-5,-3,24,6,-7,-12,i,-9,
Cc1cc(NS(=O)(=O)c2ccc(NC(=O)C(C)Oc3ccccc3Cl)cc2)no1 (stereo not given),0,-3,.,4,.,.,i,-10,
O=C(NC(=S)Nc1ccccc1O)c1ccccc1Cl,-3,1,-14,.,1,-6,i,.,
CNC(=O)c1c(NC(=O)CCS(=O)(=O)c2ccc(C)cc2)sc2c1CCN(C(=O)OC)C2,4,-1,-8,.,.,.,i,-2,
O=C(COC(=O)c1ccccc1SCC(=O)N1CCCC1)NCc1ccc(F)cc1,3,2,-12,-5,.,.,.,.,
O=C(O/C(=C/c1ccccc1)C(F)(F)F)c1ccccc1,2,-4,0,-12,.,.,.,.,
CC(=O)Nc1ccc(NC(=O)C2CCC(N3C(=O)C4C5C=CC(C6CC56)C4C3=O)CC2)cc1 (stereo not given),0,0,5,-4,-7,-8,i,15,
CC12CCC(C(=O)Nc3cccc4ccccc34)(C1Br)C2(C)C (stereo not given),-12,-8,-5,1,4,-6,i,64,
CCc1nc2ccc(C(=O)N3CCN(C)CC3)cn2c1N(CCC(C)C)CCN(C)C,4,8,-3,1,.,.,.,.,
COc1ccc(CCC(C)Nc2ccccc2F)cc1 (stereo not given),0,0,.,.,-6,-1,i,-5,
CCN(CC(=O)Nc1ccc(Br)c(C)c1)CC(=O)NC(C)C,2,-2,-3,-19,10,-3,i,-11,
CCOC(=O)C1CCN(C(=O)N(C)C)CC1,6,7,.,2,0,12,i,-6,
O=C(Nc1cccc2ccccc12)OCc1ccccc1,0,-8,-78,-15,.,.,.,.,
O=C(c1ccco1)N1CCN(C(=O)N2CCCCC2)CC1,5,6,12,.,-3,-2,i,.,
Cc1nnc(SCCn2c(N3CC(C)CC(C)C3)nc3c2c(=O)[nH]c(=O)n3C)s1 (stereo not given),3,4,-24,-10,5,-4,i,-6,
CCN1C(=O)/C(=C/N2CCc3ccccc3C2)SC1=S,-2,-5,-20,3,1,16,i,8,
COc1ccc(-c2nc(CN3CCC(C(=O)N4CCOCC4)CC3)c(C)o2)cc1C,-1,2,-5,-5,-12,-4,i,-1,
COc1ccc(-c2nn(-c3ccccc3)cc2/C=C(\C#N)S(=O)(=O)c2ccccc2)cc1OC,1,0,40,.,24,5,i,.,
CCOC(=O)c1cnc(SC)nc1Oc1cccc(NS(=O)(=O)c2ccccc2)c1,-2,-8,20,-4,-6,-9,i,15,
CCn1cc(C(=O)N2CCN(c3cccc(Cl)c3)CC2)c2cc(OC)c(OC)cc2c1=O,9,1,-20,5,6,-14,i,-13,
CCN1C(=O)N2C[C@H]3CON(C)[C@H]3C[C@H]2c2ccccc21,3,5,8,1,.,.,.,.,
CC(C)CC1c2[nH]c3ccccc3c2CCN1C(=O)C1CCOCC1 (stereo not given),0,5,6,.,12,-1,i,-15,
Cc1cc(C)c(S(=O)(=O)N(CC(=O)NCc2cccnc2)C2CCCCC2)c(C)c1,1,5,-26,.,-2,3,i,-12,
CCOC(=O)c1cn(-c2c(Cl)cccc2Cl)c2cc(Cl)c([N+](=O)[O-])cc2c1=O,-14,-14,15,.,6,2,i,27,
CS(=O)(=O)N(CC(=O)N1CCC(C(N)=O)CC1)Cc1ccc(Cl)c(Cl)c1,-2,-2,8,-16,-9,-2,i,-8,
O=C(NCc1ccccc1)C1CCCN(C(=O)NCc2ccccc2)C1 (stereo not given),-2,-4,-4,-6,-6,-10,i,-18,
O=C(O)c1cccnc1Sc1ccc(Cl)cc1,-2,-1,-17,.,-10,-4,i,-11,
CCOc1ccc(-c2cc(C(=O)N/N=C/c3cccnc3)c3ccccc3n2)cc1,10,0,i,-5,-9,-8,i,64,

# Source: PubChem BioAssay (several laboratories)

# Some of the compounds tested; the hit share may differ from the screen's.
